Compound activity as filed in PubChem BioAssay.
LASV entry inh: qHTS for Inhibitors of binding or entry into cells for Lassa Virus | Lassa virus pseudotype entry inhibition, cell reporter; control for the full effect not named in the record | Potency, µM (series often up to 37.9 µM), for inactives: at the highest dose activity change, negative = inhibition, actives largely listed as inhibitors | actives 1.2% (n = 300,000); active means well fitted inhibition curve with a large enough effect; inconclusive means small, poorly fitted or top-dose-only effect, or effect the other way; inactive means flat fitted curve, though single readings scatter; tested in HEK293 cells; note: % is set by controls: 0 for no effect and ±100 for the full control effect; nearly all actives have a fitted effect of over 50% in size; luciferase read-out
NS1 function inh: qHTS Assay for Inhibitors of Influenza NS1 Protein Function. Potency, µM (top dose mostly 46.1 µM), for the others: at the highest dose activity, positive = more growth. S. cerevisiae slowed by influenza A NS1, growth recovery by OD600. actives 0.4% (n = 270,000); note: actives are rising curves; nearly all actives have a fitted effect of over 50% in size
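Recovery from NS1-induced slow growth read by OD600 in budding yeast switched to galactose assay medium (pH 6.0, -URA) at 1:100 dilution. Compound 23 nl per well; the matching strain lacking NS1 serves as control.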
RE007 growth inh: qHTS Assay for Inhibitors of the HIV-1 protein Vpr. S. pombe RE007 Vpr strain, BacTiter-Glo ATP luminescence, 24 h; control for the full effect not named in the record. actives 0.21% (n = 360,000). Potency, µM (highest dose often 92.2 µM), for inactives: at the highest dose activity change, negative = less growth. AID 651644, 2012; active = well fitted falling curve with a large enough effect; inconclusive = small, poorly fitted or top-dose-only effect; inactive = no such curve, though single readings can be large or run the other way;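 note: % is set by controls: 0 for no effect and ±100 for the full control effect; nearly all actives have a fitted effect of over 50% in size; the assay follows cell death caused by Vpr and the record does not say whether a fall means rescue or toxicity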
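Fission yeast RE007 carrying one integrated HIV-1 vpr copy, seeded at OD 0.01 in PMG+AL medium with 23 nL pinned compound. Grown 24 h at 30 degrees; viability read by BacTiter-Glo luminescence after 5 min.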
StopGo reporter: High Throughput Screening for Foot and Mouth Disease Virus Antivirals. human cells with a luciferase reporter of 2A StopGo recoding; control for the full effect not named in the record. Potency, µM (top dose mostly 57.9 µM), without a hit: at the top dose signal change, negative = less light. actives 1.2% (n = 410,000). AID 1159524, 2015; active = well fitted falling curve with a large enough effect; inconclusive = small, poorly fitted or top-dose-only effect; inactive = no such curve, though single readings can be large or run the other way; tested in HEK293T cells; note: % is set by controls: 0 for no effect and ±100 for the full control effect; nearly all actives have a fitted effect of over 45% in size; luciferase light after 4 h
Cruzain noTriton: qHTS Assay for Promiscuous and Specific Inhibitors of Cruzain (without detergent); Potency, µM, for inactives: max response, negative = inhibition, most hits filed as inhibitors; purified cruzain, Z-FR-AMC fluorescence, no detergent; actives 2.3% (n = 200,000); Cruzipain (Trypanosoma cruzi), P25779; active = well fitted curve in the direction sought with a large enough effect; inconclusive = small, poorly fitted or top-dose-only effect, or another doubt; inactive = no such curve, though single readings can be large; an effect the other way counts as inactive or inconclusive;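 note: plate controls were enzyme without inhibitor for no effect and buffer without enzyme for full effect; nearly all actives have a fitted effect of over 40% in size; top concentration of the series not given in the record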
Target sequence (P25779 123-467 limits assumed): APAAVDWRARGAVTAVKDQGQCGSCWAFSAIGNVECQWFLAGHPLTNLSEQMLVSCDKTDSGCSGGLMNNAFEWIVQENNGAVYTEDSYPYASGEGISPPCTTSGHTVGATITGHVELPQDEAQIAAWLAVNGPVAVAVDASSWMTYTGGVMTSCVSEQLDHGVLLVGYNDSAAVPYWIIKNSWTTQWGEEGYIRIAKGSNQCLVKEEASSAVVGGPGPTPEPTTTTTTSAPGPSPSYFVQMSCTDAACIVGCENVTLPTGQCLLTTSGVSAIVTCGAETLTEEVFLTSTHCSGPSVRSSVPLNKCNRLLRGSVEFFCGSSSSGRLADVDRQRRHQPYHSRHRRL
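Purified cruzain at 1.5 nM, pre-incubated 15 min with compound at room temperature in 100 mM sodium acetate pH 5.5, 5 mM DTT, 0.00005% Triton X-100. Reaction started with 2 uM Z-FR-AMC; AMC fluorescence increase over 60 s gives rate.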
SARS PLP yeast: qHTS of Yeast-based Assay for SARS-CoV PLP; Potency, µM (top dose mostly 32.9 µM), without a hit: top-dose activity, positive = growth rescue; S. cerevisiae expressing SARS-CoV PLpro, growth rescue; control for the full effect not named in the record; actives 0.19% (n = 330,000); note: 0% is about no effect; nearly all actives have a fitted effect of over 55% in size; growth read by luminescence after 48 h
Cruzain Triton: qHTS Assay for Promiscuous and Specific Inhibitors of Cruzain (with detergent) | Cruzipain (Trypanosoma cruzi), P25779 | purified cruzain, Z-FR-AMC fluorescence, 0.01% Triton | Potency, µM, inactives show max response, negative = inhibition, usual class: inhibitors | actives 0.43% (n = 200,000) | AID 1478, 2009; active = well fitted curve in the direction sought with a large enough effect; inconclusive = small, poorly fitted or top-dose-only effect, or another doubt; inactive = no such curve, though single readings can be large; an effect the other way counts as inactive or inconclusive;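 note: plate controls were neutral wells for no effect and buffer without enzyme for full effect; nearly all actives have a fitted effect of over 40% in size; top concentration of the series not given in the record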
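In this qHTS format, compounds are incubated with 1.5 nM cruzain for 15 min at room temperature before 2 uM Z-FR-AMC is added. Release of AMC is followed at 360/450 nm, and progress is taken as the 60 s fluorescence difference.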
MARV entry inh: qHTS for inhibitors of binding or entry into cells for Marburg Virus | Potency, µM (top dose mostly 37.8 µM), for the others: top-dose activity change, negative = inhibition, usual class: inhibitors | Marburg virus pseudotyped entry inhibition, cell reporter; control for the full effect not named in the record; about a third of the inactives were read at about 46 µM | actives 1.8% (n = 300,000) | AID 540276, 2011; active = well fitted inhibition curve with a large enough effect; inconclusive = small, poorly fitted or top-dose-only effect, or effect the other way; inactive = flat fitted curve, though single readings scatter; tested in HEK293 cells; about a fifth of its hits are not listed in these tables; note: % is set by controls: 0 for no effect and ±100 for the full control effect; luciferase read-out
* marks the source's active call; other numbers are inactive results; ? = inconclusive; . = not tested or not shown; & = joins results of further samples; [ ] = dose if it differs, or a comment. Unless noted, calls come from the whole dose curve; as a rule, active means well fitted rising curve with a large enough effect; inconclusive means small, poorly fitted or top-dose-only effect; inactive means no such curve, though single readings can be large or run the other way. Potency is the fitted concentration of half-maximal effect. Compounds as they come; overall some 4.7% were active at least once.

SMILES,LASV entry inh,NS1 function inh,RE007 growth inh,StopGo reporter,Cruzain noTriton,SARS PLP yeast,Cruzain Triton,MARV entry inh
O=C(Nc1ccon1)Nc1cccc(Cl)c1Cl,.,-57.4%,-16.6%,-6.9%,.,-2.0%,.,.
COC(=O)c1c(NC(=O)CCCOc2cccc(C)c2)sc2c1CCC2,0.4%[46.1 µM],.,.,-5.3%,3.1%,.,-8.9%,.
O=C(COC(=O)c1ccc([N+](=O)[O-])o1)NCc1ccccc1,4.0%,.,-17.4%,-0.8%,.,1.1%,.,10.6%
S=C(NCc1ccco1)Nc1ccc(Br)cc1Cl,8.1%,-5.0%,2.2%,58.9%[activator],.,0.9%,.,-14.5%[46.1 µM]
O=c1[nH]c2ccc(NCc3ccc(-c4ccccc4)o3)cc2[nH]1,23.9%[46.1 µM],.,.,-40.4%,?,.,-3.1%,-3.9%[46.1 µM]
CC(=NCCc1ccccc1)c1c(O)[nH]c(=O)[nH]c1=O,-14.6%,-2.2%,3.7%,6.2%,.,0.5%,.,-6.9%[46.1 µM]
O=C(COC(=O)CSc1nnc(-c2ccc(Cl)cc2)o1)Nc1cc(Cl)ccc1Cl,.,-2.2%,-3.9%,1.1%,.,0.3%,.,.
O=C(NCCc1cccc(F)c1)/C(=C/c1cccnc1)NC(=O)c1ccccc1,-1.7%,-1.9%,10.9%,0.0%,12.7%,6.8%,-1.8%,-31.7%
COc1cc(/C=N/Nc2ncc(C(F)(F)F)cc2Cl)cc(OC)c1O,-0.5%,7.5%,-5.0%,0.0%,26.1%,-11.2%,-12.7%,3.6%
COc1ccc(N2CCN(c3ccc(-c4nc(-c5ccccc5)no4)cc3[N+](=O)[O-])CC2)cc1,-2.2%[46.1 µM],.,.,-10.4%,-10.5%,.,-5.4%,4.1%[46.1 µM]
Cc1c(NCc2nc3ccccc3[nH]2)c(=O)n(-c2ccccc2)n1C,14.1%,-17.0%,-2.8%,.,-8.4%,-11.3%,-7.4%,12.8%
COc1cc(CNCCc2c[nH]c3ccccc23)ccc1OCc1ccc(F)cc1,-21.2%,2.0%,21.4%,-7.3%,15.1%,-11.8%,-1.8%,?
Cc1ccc(Cl)c(OCC(=O)OCC(=O)NC2CCCc3ccccc32)c1 (configuration not stated),.,-7.9%,-13.3%,4.4%,9.3%,-13.6%,-10.3%,.
CCOc1ccc(N2C(=O)c3cccnc3C2Nc2ccc(C)c(C)c2)cc1 (configuration not stated),-4.2%,-0.6%,8.4%,6.0%,-3.7%,3.6%,2.0%,15.7%
CC1CCN(C(=O)/C(=C\c2ccccc2F)NC(=O)c2ccccc2)CC1,.,0.0%,-11.1%,14.4%,.,-0.6%,.,.
Cc1cccc(-n2c(C)cc(C(=S)N3CCOCC3)c2C)c1C,?,2.6%,20.2%,-23.6%,.,0.6%,.,-18.3%
Cc1cc(C)cc(OCC(=O)N(Cc2ccc(C)o2)C2CCS(=O)(=O)C2)c1 (configuration not stated),-3.5%[46.1 µM],.,.,-17.7%,14.5%,.,-4.1%,1.6%[46.1 µM]
CC(OC(=O)Cc1c(F)cccc1Cl)C(=O)NCCC1=CCCCC1 (configuration not stated),-1.9%,-6.1%,20.3%,-19.8%,10.8%,21.9%,-2.2%,-6.4%
COC(=O)c1ccc(S(=O)(=O)N2Cc3ccccc3C2)cc1,15.1%,.,16.9%,15.1%,.,3.3%,.,-2.9%[46.1 µM]
N#CCC(=O)N/N=C/c1cc([N+](=O)[O-])ccc1N1CCOCC1,16.4%,.,2.6%,-18.6%,.,4.9%,.,23.0%[46.1 µM]
CN(C)/N=C1\CCS(=O)(=O)c2sccc21,-0.3%,-2.2%,-5.3%,4.7%,.,2.5%,.,7.3%
CCOc1ccc(-c2nc(N)ncc2Oc2ccccc2Br)c(O)c1,-25.2%,5.3%,1.0%,?,-22.3%,-1.8%,-4.8%,?
Cc1ccc2nc(N(Cc3cccnc3)C(=O)c3cccs3)sc2c1,?,.,.,14.6%,2.1%,.,-0.8%,.
C/C=C/c1ccc(OCCCCN2CC(C)CC(C)C2)c(OC)c1 (configuration not stated),?,-4.9%,-7.2%,-17.8%,.,1.2%,.,?
Cc1cccc(N2CCN(C(=O)c3ccc(NC(=O)c4nsc5ccccc45)cc3)CC2C)c1 (configuration not stated),-23.8%[46.1 µM],.,.,0.0%,?,.,-1.2%,.
CN(C)C(=O)Nc1cccc(OC(=O)N(C)C)c1,1.6%,-7.7%,28.0%,7.5%,5.6%,-3.0%,15.2%,4.6%
CN(Cc1cccs1)C(=O)c1ccc(S(=O)(=O)NCc2ccco2)cc1,.,-8.8%,12.2%,11.4%,.,0.4%,.,.
Cc1ccnc(Nc2nc(-c3sc(C)nc3C)cs2)c1,14.9%[46.1 µM],.,-11.5%,-8.7%,.,.,.,5.62µM*
CCNC(=O)/C=C1\NC(C)(C)Cc2c1ccc1ccccc21,2.2%,-11.0%,-0.3%,.,-5.1%,-10.9%,-6.0%,-8.3%
C=CCn1c(SCc2nc3cc(C(F)(F)F)ccc3c(=O)[nH]2)nc2sc(CC)cc2c1=O,4.7%,6.9%,0.6%,-20.1%,-2.3%,-16.5%,-2.9%,21.0%

3 structures already listed, ordered by length of the SMILES, high to low.
SMILES,LASV entry inh,NS1 function inh,RE007 growth inh,StopGo reporter,Cruzain noTriton,SARS PLP yeast,Cruzain Triton,MARV entry inh
CN(Cc1cccs1)C(=O)c1ccc(S(=O)(=O)NCc2ccco2)cc1,.,-8.8%,12.2%,11.4%,.,0.4%,.,.
CC(OC(=O)Cc1c(F)cccc1Cl)C(=O)NCCC1=CCCCC1 (configuration not stated),-1.9%,-6.1%,20.3%,-19.8%,10.8%,21.9%,-2.2%,-6.4%
COC(=O)c1ccc(S(=O)(=O)N2Cc3ccccc3C2)cc1,15.1%,.,16.9%,15.1%,.,3.3%,.,-2.9%[46.1 µM]

Other records:
SMILES,LASV entry inh,NS1 function inh,RE007 growth inh,StopGo reporter,Cruzain noTriton,SARS PLP yeast,Cruzain Triton,MARV entry inh
CS(=O)(=O)Nc1ccc(S(=O)(=O)N2CCCCCC2)cc1,0.9%[46.1 µM],-6.4%,10.7%,7.3%,.,-3.7%,.,11.5%[46.1 µM]
COc1cc2nc(CN3CCN(S(=O)(=O)c4ccc(C)c(C)c4)CC3)[nH]c(=O)c2cc1OC,-25.2%,.,47.1%,-15.7%,.,0.8%,.,3.0%[46.1 µM]
CNC(=S)N1CCN=C1Nc1nc(C)cc(C)n1,-24.0%,1.1%,-18.3%,3.7%,.,0.1%,.,-28.4%[46.1 µM]
Cc1nn(Cc2ccc(Cl)cc2)c(C)c1NC(=O)CSc1nc2c(c(C(F)(F)F)n1)CCc1ccccc1-2,-19.8%[14.3 µM],22.8%,-0.4%,-21.6%,?,1.9%,4.3%,11.6µM*
CCOC(=O)c1oc2ccc(/C=N/O)c(Cl)c2c1C,8.7%,-0.4%,3.8%,53.7%[activator],.,-1.1%,.,-6.4%[46.1 µM]
CCOC(=O)c1oc2ccc(CNC(C)(C)C)c(Cl)c2c1C,-19.1%,7.2%,-0.1%,.,-12.2%,7.4%,-7.4%,?
CCOC(=O)c1sc(C)c2c(=O)n(CC)nnc12,-3.9%,-4.2%,-12.6%,-15.8%,-1.4%,-2.7%,-6.6%,17.3%
N/C(Cc1cccc2ccccc12)=N\O,0.9%,5.4%,-6.0%,-1.9%,.,0.9%,.,?
CCn1c(SCC(=O)Nc2ccc3c(c2)OCCO3)nnc1C(C)C,?,-1.4%,-8.2%,-1.5%,.,0.6%,.,8.1%[46.1 µM]
CC(=O)Nc1ccc(S(=O)(=O)NCc2ccc3c(c2)CCN3C(C)=O)cc1,1.5%[46.1 µM],.,.,-12.7%,4.2%,.,0.3%,.
CC(C)Cc1nnc(NC(=O)c2cc3c(s2)CCC3)s1,?,-3.6%,1.5%,63.2%[activator],.,1.1%,.,-1.8%
CC(=C\C(=O)O)/C(=C/c1ccco1)C(=O)O,.,-2.9%,-0.4%,-7.3%,.,-0.3%,.,.
Cc1ccc(S(=O)(=O)Nc2cc(-c3nn(C)c(=O)c4ccccc34)ccc2N2CCOCC2)cc1,?,15.3%,-6.9%,24.5%,?,-9.0%,-1.6%,?
Cc1ccc(NC(=O)c2c([N+](=O)[O-])cnn2C)cc1C,.,1.5%,-9.2%,3.1%,.,2.5%,.,.
COC(=O)c1ccc(CNCC(O)COc2ccc(-c3ccccc3)cc2)cc1 (configuration not stated),-8.4%[46.1 µM],-6.0%,-4.3%,16.0%,.,-0.6%,.,1.8%[46.1 µM]
Cn1c(CNC(=O)c2ccc(F)cc2)nc2ccccc21,.,-1.0%,-4.0%,-7.1%,-23.5%,-5.9%,3.3%,.
NC(=O)c1ccc(NC(=O)Nc2ccc3c(c2)OCO3)cc1,.,4.4%,0.1%,48.9%[activator],.,-4.3%,.,.
COc1ccc(OC)c(CN2CCN(C(=O)c3ccco3)CC2)c1,-1.5%,3.5%,0.8%,-9.6%,.,6.5%,.,6.7%
COCc1nnc(NC(=O)CSc2ccc(C)cc2)s1,3.1%,2.3%,-7.2%,6.9%,-4.7%,3.8%,-3.1%,7.8%
O=S(=O)(Nc1c(S(=O)(=O)c2ccccc2)c2nc3ccccc3nc2n1C1CCCCC1)c1ccccc1,-4.6%&9.3%,1.9%,?,?,?,6.2%,?,1.4%&-8.9%
